Screening results as filed in PubChem BioAssay.
PI4K2A block: blocks human PI4K2A kinase activity. Q9BTU6. purified PI4K2A, ADP-Glo luminescence, 1 h; stronger effect = lower value. activity change, negative = inhibition, % at 76.9 µM. 0.13% of 420,000 active. AID 1346378; in the data active = activity change below about -50%; inconclusive = mostly about -30% to -49%;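 also: -100% = wells without enzyme as full effect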
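PI4K2A activity was measured by ADP-Glo luminescence: enzyme (4 ug/mL stock) and phosphatidylinositol (1.2 mM stock) in Tris pH 7.5/MgCl2/EGTA/Triton X-100 buffer were reacted with ATP (300 microM stock) for one hour at ambient temperature.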
PGK inhibitor: blocks T. brucei phosphoglycerate kinase; P07378; PGK/GAPDH coupled, Kinase-Glo luminescence, 60 min; Potency, µM (highest dose often 57.5 µM), for inactives: at the top dose activity change, negative = inhibition, usual class: inhibitors; 0.043% of 380,000 active; also: potency is read from the fitted curve at half-maximal effect; % is scaled to controls: 0 for no effect and ±100 for the full control effect; nearly all actives have a fitted effect of over 60% in size
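Recombinant glycosomal PGK reaction used 1,3-bisphosphoglycerate generated in-well by GAPDH (100nM final) in 100mM TEA pH 7.6, 5mM MgCl2, 0.01% Tween-20. After 60 minutes at room temperature, ATP was read by Kinase-Glo Plus luminescence end-point.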
ERG Ets-DNA blk: inhibitors of human ERG Ets domain-DNA interaction; fluorescence polarization, His-ERG Ets domain / labelled DNA; AID 624246; 0.028% of 370,000 active; P11308; Potency, µM (titrated, usually from 76.9 µM), for inactives: at the highest dose FP activity, negative = inhibition, usual class: inhibitors; active = well fitted inhibition curve with a large enough effect in the polarisation, with a control signal flat; inconclusive = small, poorly fitted or top-dose-only effect, or effect the other way, or a change in a side signal; inactive = no such curve, though single readings can be large or run the other way; the % refers to the polarisation;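 also: polarization taken with two DNA probes labelled with fluorescein and Texas red; potency is read from the fitted curve at half-maximal effect; % of control where 0% means no effect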
Target sequence (P11308 whole entry, looked up, the tested form may be a part): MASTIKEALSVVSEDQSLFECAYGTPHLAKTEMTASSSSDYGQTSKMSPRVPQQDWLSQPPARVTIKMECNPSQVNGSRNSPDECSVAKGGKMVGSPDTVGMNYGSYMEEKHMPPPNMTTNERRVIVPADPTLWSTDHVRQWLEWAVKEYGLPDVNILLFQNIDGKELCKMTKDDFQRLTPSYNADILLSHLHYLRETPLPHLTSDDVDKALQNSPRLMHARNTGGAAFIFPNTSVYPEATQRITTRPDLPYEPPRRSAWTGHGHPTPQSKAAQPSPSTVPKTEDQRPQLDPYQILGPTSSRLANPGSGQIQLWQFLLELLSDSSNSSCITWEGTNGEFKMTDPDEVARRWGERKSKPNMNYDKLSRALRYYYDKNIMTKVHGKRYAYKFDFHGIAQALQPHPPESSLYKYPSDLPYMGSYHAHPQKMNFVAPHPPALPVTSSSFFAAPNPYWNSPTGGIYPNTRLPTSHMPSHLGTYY
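His-tagged ERG Ets domain (1 uM in the protein solution; 300mM KCl, 50mM Tris-HCl, 1mM EDTA, 1mM DTT, pH 7.5) received compound, then a probe mix of 5 nM fluorescein-DNA and 100nM Texas-615-DNA. Fluorescence polarization was read for both dyes.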
Pin1 inhibitor: human Pin1 inhibition; Q13526; Pin1 FP peptide displacement, HiFluor488, 10 min; Potency, µM (highest dose often 115 µM), inactives show at the top dose activity, negative = inhibition, hits mostly inhibitors; 0.009% of 390,000 active; active = well fitted inhibition curve with a large enough effect in the polarisation, with a control signal flat, not every such curve was filed as active; inconclusive = small, poorly fitted or top-dose-only effect, or effect the other way, or a change in a side signal; inactive = no such curve, though single readings can be large or run the other way; the % refers to the polarisation; also: potency is read from the fitted curve at half-maximal effect; % is scaled to controls: 0 for no effect and ±100 for the full control effect
Target sequence (Q13526 whole entry, looked up): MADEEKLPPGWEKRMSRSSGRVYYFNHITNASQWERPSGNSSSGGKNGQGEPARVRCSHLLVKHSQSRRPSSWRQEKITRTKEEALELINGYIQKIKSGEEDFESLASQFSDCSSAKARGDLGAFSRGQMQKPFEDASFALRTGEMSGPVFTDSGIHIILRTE
GLS inh: glutaminase GLS (human) inhibition; 0.21% of 410,000 active; GLS enzymatic activity, qHTS titration; O94925; Potency, µM (highest dose often 45.5 µM), without a hit: at the top dose activity change, negative = inhibition, usual class: inhibitors; also: potency is read from the fitted curve at half-maximal effect; % is scaled to controls: 0 for no effect and ±100 for the full control effect
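Enzyme dispensed in phosphate buffer (45 mM, pH 8.2, 0.02% Tween-20), compounds pinned in, then 1 mM L-glutamine solution and the glutamate oxidase–HRP–Amplex Red mix added; fluorescence read immediately and again after 30 min at room temperature.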
* = called active by the depositor; i = inactive; ? = inconclusive; . = no result given; & = joins results of further samples; [ ] = dose if it differs, or a comment. Unless noted, calls follow the shape of the dose curve; as a rule, active = well fitted curve in the direction sought with a large enough effect; inconclusive = small, poorly fitted or top-dose-only effect, or another doubt; inactive = no such curve, though single readings can be large; an effect the other way counts as inactive or inconclusive.

SMILES	PI4K2A block	PGK inhibitor	ERG Ets-DNA blk	Pin1 inhibitor	GLS inh
COC(=O)Oc1ccc(/C=C/C(=O)OC(C)C)cc1OC(=O)OC	7	i	4%	-9%	-24%
COc1ccc(-n2c(SCC#N)nc3c(sc(=S)n3-c3ccccc3)c2=O)c(OC)c1	7	3%	-1%	17%	-17%
COc1ccc2cc([C@H](C)C(=O)O)ccc2c1	3&-2&-1	13%	-5%	4%	4%
CC(C(=O)Nc1ccccc1-c1ccccc1)N1CCCCC1 (stereo unspecified)	0	-10%	-8%	1%	6%
N#CC(c1ccccc1)(c1ncc(C(F)(F)F)cc1Cl)N1CCOCC1 (stereo unspecified)	-2	0%	-3%	?	3%
CCOC(=O)N1CCC(N2CCCC(CO)(Cc3cccc(OC)c3)C2)CC1 (stereo unspecified)	-3	.	16%	15%	15%
C[C@H]1[C@H](NC(=O)C(=NOC(C)(C)C(=O)O)c2csc(N)n2)C(=O)N1S(=O)(=O)O	0	-11%	-15%	2%	-1%
CCc1ccccc1-n1c(SCC(=O)NC)nnc1-c1ccco1	-6	-1%	3%	0%	-1%
CC1(C)Cc2ccccc2C(C(=O)c2ccccc2)=N1	1	-6%	8%	-5%	-22%
Cc1cc(NC(=O)CSc2nc3c(cc2C#N)CCCCC3)no1	0	-10%	3%	-1%	-4%
CCn1c(SCC(=O)OC(C)C)nnc1-c1ccccc1	4	2%	-13%	0%	12%
N/C(=N\OC(=O)c1ccco1)c1cccc(Br)c1	-5	-2%	-12%	0%	-5%
CCOC(=O)N1CCN(C(=O)c2ccc3c(c2)NC(=O)/C(=C/c2ccccc2)S3)CC1	-5	-10%	6%	14%	-1%
Cc1c(N=Cc2ccc(-c3ccc(Cl)cc3)o2)c(=O)n(-c2ccccc2)n1C	2	-3%	-6%	2%	8%
O=C(COC(=O)c1cnc(Cl)c(Cl)c1)NCc1ccco1	-8	-9%	-8%	-1%	17%
COc1ccccc1N1CCN(Cc2ccc(OC)c(OC)c2OC)CC1	8	1%	-1%	-10%	.
COc1ccc(OC)c(C2CC(=O)N3CN(c4ccccc4)CSC3=C2C#N)c1 (stereo unspecified)	-11	-4%	0%	0%	15%
CC(=O)OCC1=C(C(=O)O)N2C(=O)[C@@H](NC(=O)Cc3cccs3)[C@H]2SC1	-2&-4&2	?	-3%	.	?
CCC(=O)Nc1ccc(OC)cc1OC	4	-1%	2%	-9%	?
Cc1ccc(S(=O)(=O)C(C#N)c2nc3ccccc3nc2N2CCN(C)CC2)cc1 (stereo unspecified)	0	21%	.	?	15%
CCCn1nnc(NC(=O)c2ccc(-c3cc(Cl)ccc3Cl)o2)n1	-4	i	-1%	0%	1%
CC(C)(C)C1=Nn2c(nnc2-c2n[nH]c3c2CCC3)SC1	-24	-9%	2%	1%	-3%
Cc1ccc(C)c(NC(=O)C(CC(C)C)N2Cc3ccccc3C2=O)c1 (stereo unspecified)	0	-3%	2%	0%	-12%
COc1ccccc1NC(=O)N(Cc1ccccc1)C1=NCC(C)S1 (stereo unspecified)	-3	0%	-5%	5%	.
CC(C)c1nn2c(=O)cc(COC(=O)c3ccccc3NC(=O)C3CCCCC3)nc2s1	-2	7%	-10%	0%	-10%
CC(c1ccccc1)C1CC(=O)N(CC(=O)O)C1=O (stereo unspecified)	1	3%[11.5 µM]	.	2%	5%
CC(=O)Nc1ccc(NS(=O)(=O)c2cc(Cl)ccc2Cl)cc1	-6	2%	6%	-5%	2%
O=C(Nc1nccs1)c1cn2ccccc2n1	-9	-5%	24%	-3%	0%
O=C(/C=C/c1cn(-c2ccccc2)nc1-c1cccs1)NCCN1CCOCC1	-4	9%	2%	-2%	-1%
C=CCn1c(SCC(=O)c2ccc(CNC(C)=O)o2)nc2scc(C3CC3)c2c1=O	-17	-6%	17%	?	-15%
CCCCn1ccc(=O)c2c(C(F)(F)F)nccc21	9	-6%	5%	-2%	-7%
CCOC(=O)c1c(-c2ccccc2)nnn1-c1nc(OCC)nc(N2CCCCC2)n1	10	5%	-9%	-2%	12%
CCOc1cccc2cc(-c3nc4ccc(C(=O)O)cc4[nH]3)c(=O)oc12	0	.	-4%	-13%	5%
Cc1ccc(S(=O)(=O)C(C#N)c2nc3ccccc3nc2OCCO)cc1 (stereo unspecified)	-5	.	-7%	-5%	40%[activator]
CN(C)CCNC(C(=O)Nc1cccc(C(F)(F)F)c1)c1ccccc1 (stereo unspecified)	14	i	-3%	-13%	3%
O=C(O)c1c2c(nc3ccccc13)/C(=C/c1ccc(O)cc1)CC2	2	-5%	-2%	21%	?
O=C(CCS(=O)(=O)c1ccc(Br)cc1)N1CCCCCC1	-4	?	9%	3%	?
COc1cc(CN2CCN(Cc3ccc([N+](=O)[O-])cc3)CC2)c([N+](=O)[O-])cc1OC	-3	0%	8%	-10%	1%
O=C(Nc1nnc(CCc2ccccc2)s1)c1cccs1	-8	6%	-8%	0%	5%
CCn1c(SCC(=O)OC)nnc1-c1ccccc1	6	-5%	-3%	-11%	0%
O=C(CSc1nc2cc(S(=O)(=O)N3CCOCC3)ccc2o1)Nc1c(F)cccc1F	-5	2%	16%	1%	21%
Cc1cccc(OCCN2C(=O)C(=O)c3cc(C)ccc32)c1	38	i	-6%	-5%	-13%
COc1cc(OC)c(OC)cc1CN1CCCC(C(=O)N2CCCCC2)C1 (stereo unspecified)	0	4%	-1%	-17%	25%
CCC(CC)c1nnc(NC(=O)CS(=O)(=O)c2ccc(C)cc2)s1	-5	i	17%	-8%	?
C=CCC(CC=C)(CNC(=O)C(=O)Nc1ccc(C(=O)OCC)cc1)c1ccccc1	2	8%	-2%	-9%	-12%
CC1(C)CN(C(=S)Nc2ccc(F)cc2F)C1=O	-5	i	9%	-3%	1%
c1ccc(OCc2nnc3sc(-c4cccs4)nn23)cc1	0	i	-7%	4%	-25%
CCOC(=O)c1cc(C#N)c(N2CCN(C)CC2)nc1-c1ccccc1	1	i	3%	-1%	-5%
COc1ccccc1NC(=O)CC(c1ccc(OC(C)C)cc1)c1ccccc1OC (stereo unspecified)	2	2%	7%	?	1%
CCOC(=O)c1c(C)nc(C)c2c(=O)oc3ccccc3c12	3	3%	-4%	?	-5%
CC(C)c1ccc(-c2c(NCCc3ccccc3)c(=O)c2=O)cc1	-7	2%	9%	3%	-4%
COc1cccc(C2C(C(=O)Nc3ccccc3)=C(C)Nc3nc(-c4ccccc4)nn32)c1 (stereo unspecified)	-5	3%	-4%	5%	-12%
CCOC(=O)c1sc(NC(=O)CSc2n[nH]c(-c3ccccc3)n2)c(C#N)c1C	-6	1%	0%	15%	-18%
Cc1ccc(N2C(=O)CS(=O)C(c3ccccc3)C2=O)cc1C (stereo unspecified)	-6	-7%	-5%	5%	?
CCOC(=O)C1=NN(c2ccccc2)C2C(=O)N(c3ccccc3OC)C(=O)C12 (stereo unspecified)	1	-5%	3%	-5%	3%
C/C(=N\NC(=O)c1ccc(NS(=O)(=O)c2cccs2)cc1)c1ccc2ccccc2c1	-1	-9%	9%	5%	29%
Cc1cccc(NC(=S)NCC23C=CC(O2)C2C(=O)N(c4ccc(Cl)cc4)C(=O)C23)c1 (stereo unspecified)	-1	2%	12%	28%	16%
CCOC(=O)C1CCN(C(=O)CCCNC(=O)Cn2cnc3sc(C)c(C)c3c2=O)CC1	-2	4%	1%	-3%	-1%
Nc1nc2c(ncn2COCCO)c(=O)[nH]1	-3&0&1	-9%	-5%	-5%&-3%	-4%
OC(CN1CCc2ccccc2C1)c1ccccc1 (stereo unspecified)	-1	-1%	0%	4%	15%
Additional structures
SMILES	PI4K2A block	PGK inhibitor	ERG Ets-DNA blk	Pin1 inhibitor	GLS inh
Cc1ccc(/C=C/C(=O)Nc2ccc(S(N)(=O)=O)cc2)o1	-4&-9	-5%&1%	5%&-8%	10%&3%	-33%&5%
Cc1cccc2c1N(C(=O)c1ccco1)C(C)(C)c1ssc(=S)c1-2	5	-8%	-1%	0%	1%
Cc1ccc(N2C(=O)C3C4C=CC(CNC(=S)Nc5cccc(Cl)c5)(O4)C3C2=O)cc1 (stereo unspecified)	5	-8%	-5%	31%[activator]	0%
CCOC(=O)c1sc(=S)n(C)c1NC(=O)c1cccc(Br)c1	-2	0%	7%	-2%	16%
O=C(CSc1ccsc1[N+](=O)[O-])N1CCN(c2ccccc2)CC1	-11	-8%	-3%	?	3%
COc1ccc(CCNc2ncnc3sccc23)cc1OC	0	i	-7%	18%	-1%
COc1cccc(CC2(CO)CCCN(Cc3ccc(CO)o3)C2)c1 (stereo unspecified)	3	-1%	-7%	-6%	-1%
COc1ccccc1-c1n[nH]c(=S)n1Cc1ccccc1	0	-3%	-5%	-4%	-13%
Cc1ccccc1NC(=O)C1CC(Cl)=CCC1C(=O)O (stereo unspecified)	-19	-2%	2%	-4%	-4%
Cc1ccc(CNC(=O)C2CN(S(C)(=O)=O)c3cc(Cl)ccc3O2)cc1 (stereo unspecified)	0	-4%	20%	0%	0%

Not all compounds are listed; count on the stated rates, not on these rows.
